Cruzain inh noDet: qHTS Assay for Promiscuous and Specific Inhibitors of Cruzain (without detergent). Potency, µM, inactives show max response, negative = inhibition, usual class: inhibitors. purified cruzain, Z-FR-AMC fluorescence, no detergent. Cruzipain (Trypanosoma cruzi), P25779. actives 2.3% (n = 200,000);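 further: plate controls were enzyme without inhibitor for no effect and buffer without enzyme for full effect; nearly all actives have a fitted effect of over 40% in size; top concentration of the series not given in the record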
Target sequence (P25779 123-467 limits assumed): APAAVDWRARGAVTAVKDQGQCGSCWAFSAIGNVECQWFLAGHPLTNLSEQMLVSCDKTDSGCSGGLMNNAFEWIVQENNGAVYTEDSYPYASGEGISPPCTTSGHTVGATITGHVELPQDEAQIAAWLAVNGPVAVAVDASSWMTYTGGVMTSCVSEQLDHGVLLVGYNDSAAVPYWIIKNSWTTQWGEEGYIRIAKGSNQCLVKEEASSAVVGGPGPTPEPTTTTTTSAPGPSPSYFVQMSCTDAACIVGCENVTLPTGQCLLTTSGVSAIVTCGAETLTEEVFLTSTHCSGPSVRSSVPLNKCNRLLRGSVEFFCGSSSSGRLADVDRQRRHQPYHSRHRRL
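Purified cruzain at 1.5 nM, pre-incubated 15 min with compound at room temperature in 100 mM sodium acetate pH 5.5, 5 mM DTT, 0.00005% Triton X-100. Reaction started with 2 uM Z-FR-AMC; AMC fluorescence increase over 60 s gives rate.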
LASV entry inh: qHTS for Inhibitors of binding or entry into cells for Lassa Virus; Lassa virus pseudotype entry inhibition, cell reporter; control for the full effect not named in the record; Potency, µM (top dose mostly 37.9 µM), for the others: at the highest dose activity change, negative = inhibition, actives largely listed as inhibitors; AID 540256, 2011; actives 1.2% (n = 300,000); active means well fitted inhibition curve with a large enough effect; inconclusive means small, poorly fitted or top-dose-only effect, or effect the other way; inactive means flat fitted curve, though single readings scatter; tested in HEK293 cells; further: on the % scale 0 is the no-effect control and ±100 the full control effect; nearly all actives have a fitted effect of over 50% in size; luciferase read-out
RE007 growth inh: qHTS Assay for Inhibitors of the HIV-1 protein Vpr | S. pombe RE007 Vpr strain, BacTiter-Glo ATP luminescence, 24 h; control for the full effect not named in the record | Potency, µM (titrated, usually from 92.2 µM), inactives show at the top dose activity change, negative = less growth | actives 0.21% (n = 360,000) | AID 651644, 2012; active = well fitted falling curve with a large enough effect; inconclusive = small, poorly fitted or top-dose-only effect; inactive = no such curve, though single readings can be large or run the other way;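 further: on the % scale 0 is the no-effect control and ±100 the full control effect; nearly all actives have a fitted effect of over 50% in size; the assay follows cell death caused by Vpr and the record does not say whether a fall means rescue or toxicity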
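Fission yeast strain RE007, carrying one chromosomally integrated HIV-1 vpr copy, was seeded at OD 0.01 in PMG+AL medium with 23 nL pinned compound. After 24 h at 30 °C and 99% humidity, viability was read by BacTiter-Glo luminescence.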
Cruzain inh Det: qHTS Assay for Promiscuous and Specific Inhibitors of Cruzain (with detergent) | Cruzipain (Trypanosoma cruzi), P25779 | purified cruzain, Z-FR-AMC fluorescence, 0.01% Triton | Potency, µM, without a hit: max response, negative = inhibition, actives largely listed as inhibitors | actives 0.43% (n = 200,000);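 further: plate controls were neutral wells for no effect and buffer without enzyme for full effect; nearly all actives have a fitted effect of over 40% in size; top concentration of the series not given in the record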
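Detergent-containing run (0.01% Triton X-100) in acetate buffer pH 5.5 with 5 mM DTT: enzyme at 1.5 nM final, 15 min compound preincubation at room temperature, then 2 uM Z-FR-AMC substrate. Activity taken as 60 s fluorescence increase at 360/450 nm.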
MARV entry inh: qHTS for inhibitors of binding or entry into cells for Marburg Virus; Marburg virus pseudotyped entry inhibition, cell reporter; control for the full effect not named in the record; about a third of the inactives were read at about 46 µM; Potency, µM (top dose mostly 37.8 µM), for the others: at the top dose activity change, negative = inhibition, hits mostly inhibitors; actives 1.8% (n = 300,000); AID 540276, 2011; active = well fitted inhibition curve with a large enough effect; inconclusive = small, poorly fitted or top-dose-only effect, or effect the other way; inactive = flat fitted curve, though single readings scatter; tested in HEK293 cells; about a fifth of its hits are not listed in these tables; further: on the % scale 0 is the no-effect control and ±100 the full control effect; luciferase read-out
SARS PLP yeast: qHTS of Yeast-based Assay for SARS-CoV PLP; S. cerevisiae expressing SARS-CoV PLpro, growth rescue; control for the full effect not named in the record; Potency, µM (highest dose often 32.9 µM), inactives show at the highest dose activity, positive = growth rescue; actives 0.19% (n = 330,000); active means well fitted rising curve with a large enough effect; inconclusive means small, poorly fitted or top-dose-only effect; inactive means no such curve, though single readings can be large or run the other way; further: 0% is about no effect; nearly all actives have a fitted effect of over 55% in size; growth read by luminescence after 48 h
NS1 inh: qHTS Assay for Inhibitors of Influenza NS1 Protein Function | S. cerevisiae slowed by influenza A NS1, growth recovery by OD600 | Potency, µM (doses to about 46.1 µM), for inactives: at the highest dose activity, positive = more growth | AID 2326, 2010 | actives 0.4% (n = 270,000); active means well fitted rising curve with a large enough effect; inconclusive means small, poorly fitted or top-dose-only effect; inactive means no such curve, though single readings can be large or run the other way; further: nearly all actives have a fitted effect of over 50% in size
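Compounds were scored for reversing the slow growth caused by influenza A NS1 in S. cerevisiae, measured by optical density at 600 nm. Assay medium contained 2% galactose at pH 6.0; NS1-free yeast of the same strain were the positive control.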
2A StopGo: High Throughput Screening for Foot and Mouth Disease Virus Antivirals | Potency, µM (doses to about 57.9 µM), inactives show at the top dose signal change, negative = less light | AID 1159524, 2015 | human cells with a luciferase reporter of 2A StopGo recoding; control for the full effect not named in the record | actives 1.2% (n = 410,000); active = well fitted falling curve with a large enough effect; inconclusive = small, poorly fitted or top-dose-only effect; inactive = no such curve, though single readings can be large or run the other way; tested in HEK293T cells; further: on the % scale 0 is the no-effect control and ±100 the full control effect; nearly all actives have a fitted effect of over 45% in size; luciferase light after 4 h
The depositor's hits bear a star; ? = inconclusive; . = no result given; [ ] = remark or other dose. Unless noted, the call rests on the fitted dose curve; in most records, active means well fitted curve in the direction sought with a large enough effect; inconclusive means small, poorly fitted or top-dose-only effect, or another doubt; inactive means no such curve, though single readings can be large; an effect the other way counts as inactive or inconclusive. Potency means the concentration at half of the fitted maximal effect.

SMILES | Cruzain inh noDet | LASV entry inh | RE007 growth inh | Cruzain inh Det | MARV entry inh | SARS PLP yeast | NS1 inh | 2A StopGo
CCN1CCN(c2cc(=O)n(C3CCCCC3)c(=O)[nH]2)CC1 | 0% | . | -4% | -2.5% | . | 1% | ? | -18%
O=C1[C@@H]2Cc3c([nH]c4ccccc34)C(c3ccccc3)N2C(=O)CN1CCO (stereo not given in full) | . | . | -11% | . | . | 1% | 3% | -18%
COc1ccc(-c2ccc(=O)n(CC(=O)Nc3ccc(C(=O)NC4CC4)cc3)n2)cc1OC | 26% | -13% | 1% | -4.5% | 0% | -1% | -15% | 8%
O=C(c1ccccc1)N1CCN(c2ccccc2F)CC1 | 11% | 6% | 36% | -1.3% | 3% | 5% | -15% | -10%
O=C(CNC(=O)c1cccs1)c1ccc([N+](=O)[O-])cc1 | -9% | 0% | -12% | -3.4% | ? | -20% | 23% | 14%
C/C(CC(=O)Nc1ccc(N(C)C)cc1)=N\NC(=O)c1ccccc1F | . | . | -11% | . | . | 1% | -4% | 25%
O=S(=O)(Cc1cc(Cl)nc(-c2ccncc2)n1)c1ccccc1 | . | -7% | 18% | . | ? | -3% | . | -8%
O=C(Cc1ccc(S(=O)(=O)N2CCOCC2)s1)Nc1ccc(S(=O)(=O)N2CCCCC2)cc1 | . | -24% | -6% | . | -20% | 5% | . | -23%
CCOC(=O)C1(CCOC)CCN(C(=O)c2ccccc2-c2cccc(C)c2)CC1 | . | -1%[46.1 µM] | ? | . | -25%[46.1 µM] | 1% | 2% | -10%
O=C(COc1ccccc1)NCc1ccc(-n2cccc2)cc1 | . | . | 5% | . | . | -1% | -8% | 1%
Cc1cc(Br)ccc1NS(=O)(=O)c1c(C)[nH]c(=O)[nH]c1=O | . | 22% | -25% | . | 1% | 2% | 2% | 2%
Cn1c(Cn2cnc3ccccc32)nnc1SCC(=O)CC(=O)Nc1ccccc1 | 3% | 21% | 29% | 1.9% | 16%[46.1 µM] | 4% | ? | 14%

A second format for 2 compounds above:
compound	Cruzain inh noDet	LASV entry inh	RE007 growth inh	Cruzain inh Det	MARV entry inh	SARS PLP yeast	NS1 inh	2A StopGo
O=C(CNC(=O)c1cccs1)c1ccc([N+](=O)[O-])cc1	-9%	0%	-12%	-3.4%	?	-20%	23%	14%
CCN1CCN(c2cc(=O)n(C3CCCCC3)c(=O)[nH]2)CC1	0%	.	-4%	-2.5%	.	1%	?	-18%

The list continues:
SMILES | Cruzain inh noDet | LASV entry inh | RE007 growth inh | Cruzain inh Det | MARV entry inh | SARS PLP yeast | NS1 inh | 2A StopGo
Nc1c(C(=O)Nc2ccccc2)sc2nc3c(c(-c4ccco4)c12)CCC3 | -10% | -16% | -24% | -2.8% | -15% | -7% | 26% | ?
Cc1cccc(N2CCN(C(=O)C3CCN(S(=O)(=O)c4cccnc4)CC3)CC2)c1C | 6% | . | 6% | -1.2% | 0% | -4% | 1% | ?
COc1ccc(NC(C)=O)cc1NC(=O)CSc1nc2ncccc2[nH]1 | 8% | 10% | -5% | -0.9% | ? | -2% | -9% | -19%
CN1C(=O)C(C)(C)c2cc(S(=O)(=O)NCc3ccc(Cl)cc3)ccc21 | . | . | 7% | . | . | 5% | 23% | 26%
Cc1ccc(NC(=O)OC(C)N2CCCCC2)cc1NC(=O)OC(C)N1CCCCC1 (stereo not given) | . | ? | -9% | . | 5µM* | . | . | -2%
CCO[C@@H]1OC(C(=O)NC2CC2)=C[C@H](C)[C@H]1CCCO | . | . | 3% | . | . | -1% | 4% | -22%
Cc1csc(NC(=O)C2CCCN2C(=O)OCC(C)C)n1 (stereo not given) | 10% | 7% | -1% | 4.2% | 17% | 3% | 3% | -1%
CCc1ccc2oc(C(=O)Nc3c(C)n(C)n(-c4ccccc4)c3=O)cc(=O)c2c1 | -7% | 1%[46.1 µM] | . | -4.5% | 23%[46.1 µM] | . | . | -8%
O=S(=O)(Nc1cccc(C(F)(F)F)c1)c1cccnc1 | 10% | 1% | -2% | -3.9% | 11% | 0% | 0% | 0%
Cc1ccc(C(=O)N/C(=C/c2ccco2)C(=O)O)cc1 | -12% | 1% | 7% | -3.5% | ? | 12% | 5% | -14%
NS(=O)(=O)c1cccc(NS(=O)(=O)c2ccc(/C=C/C(=O)OCC(=O)c3ccccc3)cc2)c1 | . | 2%[46.1 µM] | -18% | . | ? | 0% | . | -3%
COc1ccccc1NC(=O)N1CCN(c2ccc(F)cc2)CC1 | 8% | 9% | -29% | 0.0% | 10%[46.1 µM] | 1% | -3% | -10%
COc1ccc(NC(=O)NC23CC4(C)CC(C)(CC(C)(C4)C2)C3)cc1 | 9% | ? | 5% | -3.9% | -14% | 11% | 22% | -30%
Clc1ccc(-c2ccc(CN3CCCCC3)o2)cc1 | . | . | -1% | . | . | -2% | 7% | 32%[activator]
Cc1cc(OC(=O)c2ccco2)c(Sc2ccccc2[N+](=O)[O-])c(=O)o1 | . | 8%[46.1 µM] | -14% | . | 6%[46.1 µM] | 1% | . | -1%
Cc1cc(OC(=O)c2ccc(C)c(C)c2)c([N+](=O)[O-])c(=O)[nH]1 | . | . | -16% | . | . | -4% | -18% | -16%
O=S(=O)(NCc1ccc(Cl)cc1)NCc1ccc(Cl)cc1 | . | . | -1% | . | . | 0% | 3% | 6%
O=C(CCc1ccccc1)NC(NC(=S)Nc1ccc(Cl)cc1)C(Cl)(Cl)Cl (stereo not given) | 25µM* | ? | 8% | -3.7% | 11µM* | 12% | -6% | -13%
COc1cc(OC)cc(C(=O)Nc2ccccc2-c2nc3ccccc3s2)c1 | 1% | -6%[46.1 µM] | . | 0.8% | . | . | . | 0%
C/C(=N\Nc1nc(-c2ccccn2)nc2ccccc12)c1ccc(F)cc1 | . | . | 10% | . | . | -1% | 6% | -8%
O=C(Cn1cnc2c(cnn2-c2ccccc2Cl)c1=O)N1CCc2ccccc21 | -6% | -26% | -1% | 4.2% | -14% | -2% | -7% | -20%
NNS(=O)(=O)c1ccc(Sc2ccccn2)c([N+](=O)[O-])c1 | . | . | 10% | . | . | 1% | 1% | -13%
CCC(CC)c1nnc(NC(=O)[C@@H](NC(=O)c2cccc(C)c2)C(C)C)s1 | 13% | -18%[46.1 µM] | -11% | -5.3% | -25%[46.1 µM] | -10% | -3% | -2%
O=C(OCc1ccccc1F)c1ccc2c(c1)OCCO2 | -6% | ? | -22% | -7.5% | 17% | 3% | -32% | 45%[activator]
Cc1cc(C)c(C(=O)c2ccc(C(=O)N3CCCCC3)cc2)c(C)c1 | . | ? | 15% | . | -21%[46.1 µM] | 1% | -43% | 0%
COc1cccc2cc(-c3cn4ccc(C)cc4n3)c(=O)oc12 | . | ? | -22% | . | 10% | . | . | 72%[activator]
CC(=O)c1ccc(C(=O)N2CCCC(Nc3ccccc3)C2)s1 (stereo not given) | . | 28%[46.1 µM] | 3% | . | ? | -6% | 2% | ?
CC(=O)Cc1nsc(NC(=O)c2cccs2)n1 | 3% | 25% | -17% | 3.5% | 28% | -5% | -69% | 31%[activator]
O=C(O)c1c(F)c(F)cc2ccccc12 | 0% | 10% | 3% | 0.7% | 3% | 10% | -3% | -4%
N#Cc1ccc(OCC(=O)Nc2cc(S(=O)(=O)N3CCOCC3)ccc2N2CCOCC2)cc1 | . | 3% | 8% | . | 4%[46.1 µM] | 0% | 8% | 10%
COc1ccc(N(C(=O)c2ccncc2)S(=O)(=O)c2ccccc2)cc1 | . | -2% | 1% | . | 0% | -11% | -100% | 2%
Cc1ccc(SCC(=O)N(C)CC(=O)Nc2cccc(F)c2)c(C)c1 | . | ? | 6% | . | -24% | 1% | . | -5%
CCCCCCc1cc2cc(-c3nnc(-c4ccccc4OC)o3)c(=O)oc2cc1O | 8% | ? | -12% | -4.3% | ? | -15% | 4% | ?
CCn1c(COc2ccc3c(c2)CCCC3)nnc1SCC(=O)Nc1nccs1 | 7.9µM* | ? | 4% | 8.9% | -6% | 5% | -4% | 3%
Cc1cc2oc(C(=O)NCc3ccncc3)c(C)c2cc1C | -16% | . | -9% | -1.8% | . | -13% | -95% | -5%
Oc1[nH]c2ccccc2c1OCc1ccncc1 | 1% | 18% | 0% | 2.7% | 31% | -1% | -1% | -14%
COC(=O)c1ccc(C)c(NC(=O)c2ccc(CN3CCc4ccccc4C3)cc2)c1 | . | . | -18% | . | . | -1% | 1% | ?
O=C(NC1CCCC1)C(c1ccncc1)N(Cc1ccccc1)C(=O)Cc1cccs1 (stereo not given) | 0% | 0% | -3% | -0.8% | ? | 13% | 7% | 24%
Cc1ccc(S(=O)(=O)Nc2c(C)ccc3nsnc23)cc1 | -7% | -24% | -20% | -5.5% | -41% | -29% | -7% | 39%[activator]
COc1ccc(C(=O)N2CCN(c3ccccc3)CC2)cc1S(=O)(=O)NC1CC1 | . | ? | 6% | . | 20% | -2% | . | 52%[activator]

Entries of single compounds, quoted from the list:
Profile of Cc1ccc(S(=O)(=O)Nc2c(C)ccc3nsnc23)cc1 = Cruzain inh noDet = -7%; LASV entry inh = -24%; RE007 growth inh = -20%; Cruzain inh Det = -5.5%; MARV entry inh = -41%; SARS PLP yeast = -29%; NS1 inh = -7%; 2A StopGo = 39%[activator]
Profile of O=C(NC1CCCC1)C(c1ccncc1)N(Cc1ccccc1)C(=O)Cc1cccs1 (stereo not given) = Cruzain inh noDet = 0%; LASV entry inh = 0%; RE007 growth inh = -3%; Cruzain inh Det = -0.8%; MARV entry inh = ?; SARS PLP yeast = 13%; NS1 inh = 7%; 2A StopGo = 24%

From PubChem BioAssay

The order is random; 4.5% or so of the library scored in one or more.
